TsaE inh: YjeE (TsaE) inhibition, E. coli. P0AF67. purified YjeE, fluorescence polarisation of a bound ADP probe. Potency, µM. hit rate 0.05% among 71,000. AID 605; active = well fitted falling curve; inconclusive = weaker or top-dose-only fall, or a rising curve; inactive = flat or poorly fitted curve;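 note: top concentration of the series not given in the record; excess ADP was the control for the full effect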
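Purified YjeE (10 uM) with BODIPY Texas Red-labeled ADP probe (2 uM); compounds pin-transferred, 15 min at room temperature. Binding inhibition read as decreased fluorescence polarization; ADP titration as control.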
PK Bst: alters activity of Bacillus stearothermophilus pyruvate kinase. Potency, µM. AID 361. hit rate 1.2% among 51,000. partly purified Bacillus stearothermophilus pyruvate kinase, luminescence ATP production; ribose 5-phosphate activator present at AC10; in the data active means potency below about 11 µM; inconclusive means mostly about 12 µM to 25 µM; inactive means weaker than that;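 the screen sought inhibitors and activators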;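 note: potency is the fitted concentration of half-maximal effect; scaled between full activation by ribose 5 phosphate and full inhibition by luteolin; about four in five hits inhibit and the cells do not say which; series up to 57 µM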
The depositor's hits bear a star; i = inactive; ? = inconclusive; · = not tested or not shown.

#	Compound	TsaE inh	PK Bst
1	CNc1nnc(-c2ccncc2)s1	i	·
2	CCCNC(=O)c1c(N)n(-c2cc(OC)cc(OC)c2)c2nc3ccccc3nc12	i	>57
3	CCN(CC(=O)Nc1ccccc1C(=O)OC)S(=O)(=O)c1ccc(OC)cc1	i	>57
4	O=C(NCCSc1ccccc1)c1ccco1	i	>57
5	Oc1ccccc1-c1nc(NCc2ccco2)c2ccccc2n1	·	>26
6	CCOC(=O)C1=C(C)Nc2ccccc2N=C1NC(=O)c1cccc(S(=O)(=O)N(C)C)c1	i	>57
7	COc1ccc(N(CC(=O)NCc2ccc3c(c2)OCO3)S(=O)(=O)c2c(C)nn(C)c2C)cc1	i	·
8	Cc1csc(SCC(=O)c2ccc(S(=O)(=O)N3CCOCC3)cc2)n1	i	>57
9	Cc1ccc(C)c(N2CCN(C(=O)CC3Sc4ccccc4NC3=O)CC2)c1 (stereo not drawn)	i	>57
10	Cn1c(C(=O)NCCCN2CCN(c3ccccc3F)CC2)cc2c(=O)[nH]c3ccccc3c21	i	i
11	CCN(CC)S(=O)(=O)c1cccc(-c2nnc(SCC(=O)NC)n2CCc2ccccc2)c1	i	>57
12	Cc1nc2c(o1)CCc1ccccc1C2N1CCN(C)CC1 (stereo not drawn)	·	>26
13	O=C(CN1C(=O)NC(Cc2ccccc2)C1=O)Nc1ccccc1 (stereo not drawn)	i	>57
14	COc1cc(OC)cc(C(=O)Nc2ccc(-n3cnnn3)c(C)c2)c1	i	>57
15	CCCCC(=O)Nc1ccc(N2CCN(S(C)(=O)=O)CC2)cc1	i	>57
16	Cc1cccc(-n2c(=O)[nH]c3c(C(N)=O)nc(-c4ccccc4Cl)nc32)c1	i	·
17	CCOc1ccccc1NC(=O)CSc1nnc(CNC(=O)COc2ccc(Cl)cc2)o1	i	>57
18	CCOC(=O)C(C)Sc1nc2c([nH]c3ccccc32)c(=O)n1C (stereo not drawn)	i	>57
19	Cc1nnc(NC(=O)CSc2ccccn2)s1	i	>57
20	CCOC(=O)N1CCN(C(=O)c2ccc(CS(=O)(=O)c3c(Cl)cccc3Cl)o2)CC1	i	·
21	COc1ccc(NC(=O)N2CCC3(CC2)CCN(C(=O)c2cccc(F)c2)CC3)cc1	i	·
22	CCCOc1ccccc1Nc1nnc(C)c(=O)[nH]1	i	>57
23	Cc1c(C(=O)N2CCOCC2)[nH]c2ccc(OCc3ccccc3)cc12	i	>57
24	COc1ccccc1-c1nnc(NC(=O)c2ccc(S(=O)(=O)N(C)Cc3ccccc3)cc2)o1	i	>57
25	COc1ccc(CCNc2oc(Cc3cccc4ccccc34)nc2C#N)cc1OC	i	9.9*
26	O=C(COC(=O)C1CC2C=CC1C2)Nc1ccc2c(c1)OC(F)(F)O2 (stereo not drawn)	i	>57
27	CC(C)(C)NC(=O)CSc1nnc(-c2ccncc2)n1Cc1ccccc1	i	>57
28	CC(C)NC(=O)N1CCC2(CC1)CCN(C(=O)c1cnccn1)CC2	i	·
29	Cc1ccc(-c2nnnn2CS(=O)(=O)c2ccccc2)cc1	i	>57
30	O=C(Nc1ccc(Cl)cn1)c1cccc(F)c1	i	·
31	Cc1ccc(NC(=O)N(C2=NCC(C)S2)c2ccccc2)cc1 (stereo not drawn)	i	·
32	Cc1cc(C)n2nc(S(=O)(=O)NCCc3ccccc3)nc2n1	i	·
33	COc1ccc(S(=O)(=O)Nc2ccc3c(c2)OCCO3)cc1Cl	i	>57
34	CCc1c(C#N)c(N)nc(SCC(=O)OCc2ccccc2)c1C#N	i	·
35	COc1ccc(S(=O)(=O)NCc2ccco2)cc1-c1nnc2c3ccccc3c(C)nn12	i	>57
36	COC(=O)CSc1nnc([C@H](Cc2ccccc2)NC(=O)OC(C)(C)C)o1	i	>57
37	O=S(=O)(/N=C/c1ccccc1O)c1cccs1	i	>57
38	COc1ccc(NC(=O)C2CCCN(c3c4c(nc5ncnn35)CCC4)C2)cc1OC (stereo not drawn)	i	>57
39	Cc1ccccc1NC(=O)CSc1nc(Nc2ccccc2)nc(N2CCOCC2)n1	i	>57
40	O=C(CCS(=O)NCc1ccccc1)NCc1ccccc1 (stereo not drawn)	i	·
41	C=CCn1c(=O)c(C(=O)NCCN(CC)CC)c(O)c2ccccc21	·	>26
42	CC(=O)OCCCCON1C(=O)c2ccccc2C1=O	i	>57
43	Cc1ccc(-c2nc(CS(=O)(=O)CC(=O)NC3CCCCC3C)c(C)o2)cc1 (stereo not drawn)	i	·
44	Nc1cccc2cc(S(=O)(=O)Nc3ccc(C(=O)O)cc3)ccc12	i	·
45	COC(=O)C1=C(CN2CCCc3ccccc32)NC(=O)NC1c1ccc(F)cc1 (stereo not drawn)	i	>57
46	Cc1nc(SCC(=O)Nc2c(C)n(C)n(-c3ccccc3)c2=O)n[nH]1	i	>57
47	CCOc1ccc(-c2cc(CCCC(=O)NCCc3ccc(OC)c(OC)c3OC)no2)cc1	i	>57
48	O=C(Nc1cnc2ccccc2c1)N1CCCCC1	i	·
49	CC(=O)C1=C(O)C(=O)N(Cc2ccco2)C1c1ccc(F)cc1 (stereo not drawn)	i	>57
50	Cn1c(=O)c2ncn(CC(=O)Nc3ccc4c5c(cccc35)CC4)c2n(C)c1=O	i	i
51	CC(C)(Oc1ccc(Cl)cc1)C(=O)OCC(=O)N1CCCC1	i	>57
52	CN(Cc1ccccc1)C(=O)c1ccccc1NC(=O)c1ccco1	i	>57
53	CCOC(=O)c1sc(=S)n(CC)c1N	i	>57
54	OC(COc1ccc2c(c1)OCO2)CN1CCc2ccccc2C1 (stereo not drawn)	i	>57
55	O=C(O)C12CC3CC(C1)CC(n1cnc(Cl)n1)(C3)C2	i	>57
56	O=S(=O)(c1cccc(F)c1)N1CCN(Cc2ccc3c(c2)OCO3)CC1	i	>57

More structures.
#	Compound	TsaE inh	PK Bst
57	COc1ccc([C@@H]2OC[C@]3(COC(C)=O)[C@H](C)C=C(C)[C@@H]2[C@H]3C)cc1	i	·
58	Cc1cc(C)c(NC(=O)CCCOC(=O)C2=COCCO2)c(C)c1	i	>57
59	CN1/C(=C\C(=O)COC(=O)C2COc3ccccc3O2)C(C)(C)c2ccccc21 (stereo not drawn)	i	>57
60	Cc1cccc(NC(=O)CCNS(=O)(=O)c2cccc3nsnc23)c1	i	?
61	Cc1ccc(-c2nnn(CC(=O)N(Cc3cccs3)C(C(=O)NC(C)(C)C)c3ccco3)n2)o1 (stereo not drawn)	i	>57
62	CCc1cc(C(=O)COc2ccccc2F)c(O)cc1O	i	·
63	CCC(CCC(=O)Nc1ccn(-c2ccccc2)n1)C(=O)O (stereo not drawn)	i	>57
64	CCn1c(CCNC(=O)c2cccs2)nnc1SCC(=O)NC1CCCCC1	i	>57
65	Cc1cc(C)n2nc[n+](C)c2n1	i	>57
66	CC(C)=O	i	·
67	CCCC(=O)Nc1cc2c(cc1C(=O)c1ccccc1)OCCO2	i	>57
68	CCSc1nc2ccccc2n1Cc1nc(N)nc(N(C)C)n1	i	>57
69	CC1(C)CC(N2CCN(c3ccccc3)CC2)=CC(=[N+]2CCCC2)C1	i	>57
70	CS(=O)(=O)Cc1nc2ccccc2oc1=O	i	>57
71	COc1ccc2[nH]cc(CCNc3cc(-c4cccnc4)ncn3)c2c1	i	·
72	Cc1cc(C)nc(SCc2nnc(SCC(=O)N3CCCc4ccccc43)n2C)n1	i	>57
73	Cc1cc(C(=O)NCCC2=CCCCC2)no1	i	>57
74	COc1ccc(C2N(C(=O)c3ccccc3)CCN2C(=O)c2ccccc2)cc1	i	>57
75	COC(=O)c1ccc2c(=O)n(CCCCCC(=O)N3CCN(c4ccc(F)cc4)CC3)c(=O)[nH]c2c1	i	>57
76	O/N=C/c1ccc(OCC(O)COc2ccc(/C=N/O)cc2)cc1	·	i
77	O=C(c1csnn1)N1CCC2(CCCN(c3ccccn3)C2)CC1	i	·
78	CC(=O)Nc1ccccc1NC(=O)CN(C)S(=O)(=O)c1ccc(C)cc1	i	>57
79	O=C(Nc1cccc(C(F)(F)F)c1)C1CCCN1S(=O)(=O)c1cccc2cccnc12 (stereo not drawn)	i	8.3*
80	COc1ccc(Cl)cc1NC(=O)CCN1CCN(c2ccccc2C)CC1	i	>57
81	CCCNC(=O)C(NS(=O)(=O)c1cccc2nsnc12)c1ccccc1 (stereo not drawn)	i	>57
82	COC(=O)C1C2C=CC3(CN(c4cccc(C)c4)C(=O)C13)O2 (stereo not drawn)	i	>57
83	Cc1nn(-c2ccccc2)c2c1C(c1ccc(F)cc1F)C(C#N)=C(N)O2 (stereo not drawn)	·	>11
84	CCOc1cc(C2C(C#N)=C(N)Oc3n[nH]c(CC)c32)ccc1OCCN1CCOCC1 (stereo not drawn)	i	>57
85	CCOC(=O)c1c(C)n(C)c2ccc(OCC(N)=O)cc12	i	·
86	CC(C)=CC(=O)Nc1ccccc1C(N)=O	i	>57
87	CCOc1cc(N2CCOCC2)c(OCC)cc1NS(=O)(=O)c1ccc(Cl)s1	i	>57
88	CCOC(=O)CSc1nc(CC)nc2ccccc12	i	>57
89	Cc1ccc(O)c(CC(C)C)n1	i	>57
90	CCOC(=O)c1cnc2c(Cl)c(Cl)ccc2c1N1CCN(C)CC1	i	·
91	Cc1ccc(NC(=O)N2CCC(O)(c3ccc(Cl)cc3)CC2)cc1	i	>57
92	CCOC(=O)C1CCCN(c2c(N3CCN(c4cccc(Cl)c4)CC3)c(=O)c2=O)C1 (stereo not drawn)	i	·
93	CCc1ccc(CNc2ccc3c(c2)ncn3C)cc1	i	>57
94	CCn1c(SCC(=O)Nc2nccs2)nnc1-c1ccccc1	i	>57
95	CC(C)OC(=O)c1ccc(NC(=O)C2C3CC4OC(=O)C2C4C3)cc1 (stereo not drawn)	i	·
96	C=C(C)Cn1c(SCC(=O)O)nc2c1c(=O)[nH]c(=O)n2C	i	·
97	c1ccc2c(c1)Cn1c-2nc2ccccc21	i	?
98	Cc1cc2n(n1)SC(Nc1ccccc1)N2 (stereo not drawn)	i	>11
99	N#CC1=C(N)SC(N)=C(C#N)C1CCc1ccccc1	i	>57
100	O=C(O)c1ccccc1Nc1ccccc1	i	·
101	Cc1ccnc(NC(=O)CCC2COc3ccccc3O2)c1 (stereo not drawn)	i	>57
102	COc1ccc(/C(CC2(O)C(=O)Nc3ccccc32)=N\O)cc1 (stereo not drawn)	i	>57
103	C=CCNC(=O)C1CC(=O)N(c2ccc(Br)cc2)C1 (stereo not drawn)	i	·
104	CCCCCOC(=O)C1=C(C)Nc2nnnn2C1c1ccc(OC)c(OC)c1OC (stereo not drawn)	i	>57
105	CCCc1[nH]nc2c1C(c1cccc(OC)c1)C(C#N)=C(N)O2 (stereo not drawn)	·	>26
106	O=C(NC1CCCCC1)c1ccc(Br)o1	i	·
107	CCC(C)NC(=O)Cn1cccc1C(=O)c1ccccc1 (stereo not drawn)	i	>57
108	CCOC(=O)N1CCN(c2nc(-c3ccco3)cc(C(F)(F)F)n2)CC1	i	>57
109	CN(C)S(=O)(=O)c1ccc(C(=O)Nc2ccccc2OC(F)(F)C(F)F)cc1	i	>57
110	CCCn1c(SCC(=O)c2ccc3c(c2)OCCO3)nc2c1c(=O)n(C)c(=O)n2C	i	>57
111	CCNc1nc(N)nc(Oc2ccc(OCCOc3ccc(Cl)cc3Cl)nn2)n1	i	i
112	CCN(CCCc1ccccc1)CCCc1ccccc1	i	>26

(more compounds)
#	Compound	TsaE inh	PK Bst
113	CCCC(=O)Nc1ccc(-c2nc3cc(C)c(C)cc3o2)cc1	i	i
114	CN(C)Cc1ccccc1-c1nccc(N(C)Cc2ccco2)n1	i	·
115	CCc1nc2ccccc2c(C(=O)OCC(=O)NCCCN2CCCC2=O)c1C	i	>57
116	O=C(CSc1nnnn1-c1cccc2ccccc12)N1CCOCC1	i	8*
117	CCC(O)C(C)(C)C (stereo not drawn)	i	·
118	Cc1cc(Nc2ccc(F)cc2)n2nc(C)nc2n1	i	·
119	CN(C)c1ccc(NC(=O)Nc2cccc(Cl)c2)cc1	i	·
120	CCC1CCCCN1C(=O)CSc1nnc(-c2ccco2)o1 (stereo not drawn)	i	>57
121	CCc1nnc(NC(=O)c2ccc(S(=O)(=O)N3CCOCC3)cc2)s1	i	·
122	CC(C)(C)NC(=O)c1ccc2c(c1)C(=O)N(C1CCCCC1)C2=O	i	>57
123	CNc1nc(-c2ccc(C(=O)N(C)C)cc2)nc2ccccc12	i	·
124	Cc1[nH]c(C)c2c(=O)n(-c3ccccc3)ncc12	i	·
125	Cc1cc(NC(=O)CSc2nc(-c3ccccc3)c(C#N)c(=O)[nH]2)no1	i	>57
126	O=C1CS/C(=C/C(=O)c2ccccc2)N1	i	·
127	Cc1nccn1CCC(=O)O	i	>57
128	CCOC(=O)C(C)(C)Sc1nc2c(cnn2-c2ccc(C)cc2)c(=O)[nH]1	i	>57

Assay outcomes from PubChem BioAssay.

Some of the compounds tested (hit frequency here may not be typical).
